Screening results (PubChem)
SARS PLpro yeast – blocks SARS-CoV papain-like protease in a yeast assay | 0.19% of 330,000 active | Potency, µM (titrated, usually from 32.9 µM), for inactives: top-dose activity, positive = growth rescue | S. cerevisiae expressing SARS-CoV PLpro, growth rescue; control for the full effect not named in the record; active means well fitted rising curve with a large enough effect; inconclusive means small, poorly fitted or top-dose-only effect; inactive means no such curve, though single readings can be large or run the other way; note: 0% is about no effect; nearly all actives have a fitted effect of over 55% in size; growth read by luminescence after 48 h
NS1 inh – inhibitors of influenza NS1 protein function. S. cerevisiae slowed by influenza A NS1, growth recovery by OD600. Potency, µM (series often up to 46.1 µM), inactives show top-dose activity, positive = more growth. 0.4% of 270,000 active. AID 2326; active means well fitted rising curve with a large enough effect; inconclusive means small, poorly fitted or top-dose-only effect; inactive means no such curve, though single readings can be large or run the other way; note: nearly all actives have a fitted effect of over 50% in size
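S. cerevisiae expressing influenza A NS1, grown in glucose, washed, then diluted 1:100 into pH 6.0 -URA galactose medium with 23 nl compound. Growth recovery read as OD600; NS1-free strain serves as control.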
RE007 growth inh – less growth of the S. pombe RE007 Vpr strain; S. pombe RE007 Vpr strain, BacTiter-Glo ATP luminescence, 24 h; control for the full effect not named in the record; Potency, µM (titrated, usually from 92.2 µM), without a hit: top-dose activity change, negative = less growth; 0.21% of 360,000 active; AID 651644; active = well fitted falling curve with a large enough effect; inconclusive = small, poorly fitted or top-dose-only effect; inactive = no such curve, though single readings can be large or run the other way;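 note: % is set by controls: 0 for no effect and ±100 for the full control effect; nearly all actives have a fitted effect of over 50% in size; the assay follows cell death caused by Vpr and the record does not say whether a fall means rescue or toxicity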
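Fission yeast RE007 carrying one integrated HIV-1 vpr copy, seeded at OD 0.01 in PMG+AL medium with 23 nL pinned compound. Grown 24 h at 30 degrees; viability read by BacTiter-Glo luminescence after 5 min.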
Cruzain noTriton – cruzain (T. cruzi) inhibition without detergent; purified cruzain, Z-FR-AMC fluorescence, no detergent; Potency, µM, inactives show max response, negative = inhibition, actives largely listed as inhibitors; 2.3% of 200,000 active;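 note: plate controls were enzyme without inhibitor for no effect and buffer without enzyme for full effect; nearly all actives have a fitted effect of over 40% in size; top concentration of the series not given in the record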
Target sequence (P25779 123-467 limits assumed): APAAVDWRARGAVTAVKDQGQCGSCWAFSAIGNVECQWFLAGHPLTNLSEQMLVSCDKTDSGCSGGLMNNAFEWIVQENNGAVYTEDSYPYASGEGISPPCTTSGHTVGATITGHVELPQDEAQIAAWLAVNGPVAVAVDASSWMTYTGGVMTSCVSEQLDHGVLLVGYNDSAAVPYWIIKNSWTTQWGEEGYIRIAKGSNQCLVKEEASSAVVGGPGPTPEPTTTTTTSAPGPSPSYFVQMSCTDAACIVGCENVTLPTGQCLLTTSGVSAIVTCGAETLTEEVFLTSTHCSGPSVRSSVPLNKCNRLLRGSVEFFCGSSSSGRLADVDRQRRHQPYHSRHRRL
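Purified cruzain at 1.5 nM, pre-incubated 15 min with compound at room temperature in 100 mM sodium acetate pH 5.5, 5 mM DTT, 0.00005% Triton X-100. Reaction started with 2 uM Z-FR-AMC; AMC fluorescence increase over 60 s gives rate.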
MARV entry inh – Marburg virus entry inhibition; 1.8% of 300,000 active; Marburg virus pseudotyped entry inhibition, cell reporter; control for the full effect not named in the record; about a third of the inactives were read at about 46 µM; Potency, µM (titrated, usually from 37.8 µM), inactives show at the highest dose activity change, negative = inhibition, usual class: inhibitors; active = well fitted inhibition curve with a large enough effect; inconclusive = small, poorly fitted or top-dose-only effect, or effect the other way; inactive = flat fitted curve, though single readings scatter; tested in HEK293 cells; about a fifth of its hits are not listed in these tables; note: % is set by controls: 0 for no effect and ±100 for the full control effect; luciferase read-out
2A StopGo – lowers the luciferase signal of an FMDV 2A StopGo reporter; human cells with a luciferase reporter of 2A StopGo recoding; control for the full effect not named in the record; Potency, µM (titrated, usually from 57.9 µM), inactives show top-dose signal change, negative = less light; AID 1159524; 1.2% of 410,000 active; active = well fitted falling curve with a large enough effect; inconclusive = small, poorly fitted or top-dose-only effect; inactive = no such curve, though single readings can be large or run the other way; tested in HEK293T cells; note: % is set by controls: 0 for no effect and ±100 for the full control effect; nearly all actives have a fitted effect of over 45% in size; luciferase light after 4 h
Cruzain inh Det – cruzain (T. cruzi) inhibition with detergent. purified cruzain, Z-FR-AMC fluorescence, 0.01% Triton. Potency, µM, for the others: max response, negative = inhibition, usual class: inhibitors. 0.43% of 200,000 active. AID 1478;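 note: plate controls were neutral wells for no effect and buffer without enzyme for full effect; nearly all actives have a fitted effect of over 40% in size; top concentration of the series not given in the record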
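Sodium acetate buffer (100 mM, pH 5.5) containing 5 mM DTT and 0.01% Triton X-100 hosted 1.5 nM cruzain and test compound for 15 min at room temperature. Cleavage of 2 uM Z-FR-AMC was then tracked by fluorescence.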
Lassa entry inh – blocks Lassa virus binding to or entry into cells; Lassa virus pseudotype entry inhibition, cell reporter; control for the full effect not named in the record; Potency, µM (highest dose often 37.9 µM), for inactives: at the top dose activity change, negative = inhibition, actives largely listed as inhibitors; 1.2% of 300,000 active; active means well fitted inhibition curve with a large enough effect; inconclusive means small, poorly fitted or top-dose-only effect, or effect the other way; inactive means flat fitted curve, though single readings scatter; tested in HEK293 cells; note: % is set by controls: 0 for no effect and ±100 for the full control effect; nearly all actives have a fitted effect of over 50% in size; luciferase read-out
* marks the source's active call; other numbers are inactive results; ? = inconclusive; . = not tested or not shown; & = joins results of further samples; [ ] = another dose, or the depositor's remark. Unless noted, calls come from the whole dose curve; as a rule, active = well fitted curve in the direction sought with a large enough effect; inconclusive = small, poorly fitted or top-dose-only effect, or another doubt; inactive = no such curve, though single readings can be large; an effect the other way counts as inactive or inconclusive. Potency is the fitted concentration of half-maximal effect. The order is random. About 4.6% of those tested had a hit in this group.

Screens in order – SARS PLpro yeast	NS1 inh	RE007 growth inh	Cruzain noTriton	MARV entry inh	2A StopGo	Cruzain inh Det	Lassa entry inh
- O=C(c1ccccc1)N(Cc1cccnc1)C1(C(=O)Nc2ccccc2)CCCCC1
 : -5%	9%	5%	9%	2%	15%	-2.0%	-2%
- COc1ccc(-c2csc(N3CCN(S(=O)(=O)c4ccc5c(c4)NC(=O)CO5)CC3)n2)cc1
 : -3%	21%	20%	.	.	?	.	.
- COc1ccc2c(c1)[nH]c1c(=O)n(Cc3ccccn3)cnc12
 : 2%	4%	1%	-3%	4%	12%	0.6%	?
- CCC(=O)Oc1ccc(C(=O)Nc2cccc(C(=O)NCC(C)C)c2)cc1
 : 0%	3%	-2%	.	-17%[46.1 µM]	28%	.	-3%
- COc1ccc([N+](=O)[O-])cc1NC(=O)CSc1ccccc1
 : -4%	-54%	-4%	7%	?	-8%	-9.2%	3%
- COc1ccc(N2C(=O)/C(=C/c3cccs3)C(=O)NC2=S)cc1
 : -5%	7%	24%	.	16%[46.1 µM]	25µM*	.	3%
- C#CCSc1nnnn1-c1cccc(Cl)c1
 : -1%	-6%	8%	.	3.2µM*	-14%	.	?
- COc1ccc(Cl)cc1Nc1nnc(-c2ccncc2)s1
 : -1%	-1%	25%	.	.	-6%	.	.
- Fc1ccc(CNC(=S)Nc2cccc(C(F)(F)F)c2)cc1
 : .	-42%	11%	24%	?	-49%	-2.6%	?
- C(=N\Nc1nc2ccccc2[nH]1)/c1cccc2nccnc12
 : 1%	-3%	-9%	.	?	16%	.	?
- NC(=O)c1cc([N+](=O)[O-])cc2c1C=Cc1ccccc1O2
 : 6%	.	6%	.	-20%	11%	.	24%
- Cc1c(Cl)ccc2c1NC(=O)[C@]21[C@@H]2C(=O)N(Cc3ccccc3)C(=O)[C@@H]2[C@@H]2CCCN21
 : -5%	?	5%	?	?	?	-6.2%	1%
- CC(C)N(C)NC(=S)Nc1ccccc1
 : ?	-2%	-1%	-6%	10%	3%	-0.7%	18%
- CC(C)c1ccc(/C=N/Nc2cc(N3CCOCC3)nc(N3CCOCC3)n2)cc1
 : -3%	9%	-8%	?	?	-24%	-12%	?
- Cc1cc(C)n(S(=O)(=O)c2cc(Cl)ccc2Cl)n1
 : 6%	-1%	-8%	15%	-1%	-13%	-0.2%	6%
- Cc1ccc(N2C(=O)c3ccc(C(=O)Nc4cccnc4)cc3C2=O)c(C)c1
 : -15%	9%	-19%	11%	2%	?	-3.2%	11%
- CC(=O)c1c(C)nn(C(=O)c2cccs2)c1C
 : 7%	-5%	-5%	8%	5%	-16%	5.2%	.
- Cc1ccc(/C=C/S(=O)(=O)NCCC(=O)NCc2ccccc2F)cc1
 : 2%	.	4%	.	-14%[46.1 µM]	21%	.	5%[46.1 µM]
- O=C(NC1CCC(O)CC1)c1cccnc1Sc1ccccc1Cl (stereo not drawn)
 : 1%	10%	-10%	.	5%	-8%	.	-1%
- COc1ccc(C(C(=O)NC2CCCC2)N(C(=O)c2ccco2)c2ccc(OC)c(OC)c2)cc1 (stereo not drawn)
 : 2%	1%	4%	?	0%	1%	1.4%	?
- CCc1c(C)c(C#N)c2nc3ccccc3n2c1Nc1c(C)n(C)n(-c2ccccc2)c1=O
 : 6%	-9%	-7%	3%	?	-2%	-2.5%	15%
- COc1cc(C(=O)NCC(c2cccs2)N2CCc3ccccc32)cc(OC)c1OC (stereo not drawn)
 : -2%	.	-18%	.	?	-12%	.	?
- Cc1nn2cc(-c3ccc(Cl)cc3)cnc2c1Br
 : -1%	.	-1%	.	?	40%[activator]	.	-15%
- CC(C)CN(C(=O)COC(=O)CCc1c[nH]c2ccccc12)C1CCS(=O)(=O)C1 (stereo not drawn)
 : 7%	-9%	-3%	?	-22%[46.1 µM]	-10%	3.0%	?
- O=C(NC1CCCCCC1)C1CCN(C(=O)c2ccc(Br)cc2)CC1
 : -6%	-4%	-4%	.	.	-27%	.	.
- COc1cc2c(cc1OC)CN(CC(=O)Nc1ccccc1C#N)CC2
 : -5%	0%	-22%	5%	-11%[46.1 µM]	?	-2.1%	19%
- Cn1c(N)c(C(=O)COC(=O)/C=C/c2ccccc2)c(=O)n(C)c1=O
 : -13%	.	-5%	.	-11%	-15%	.	-1%
- CC(C)N1CC=C2C(C#N)=C(N)C(C#N)(C#N)C(c3ccccc3)C2C1 (stereo not drawn)
 : 2%	8%	-2%	-2%	-13%	-18%	-6.5%	1%
- C=C(C)C1CC=C(C)/C(=N/NC(=O)COc2cccc(C)c2)C1 (stereo not drawn)
 : -5%	1%	13%	-12%	3%	11%	-9.4%	-18%
- CN(C)c1ccc(C(CNC(=O)c2ccccc2Cl)N2CCCC2)cc1 (stereo not drawn)
 : .	.	.	-3%	.	-3%	-1.4%	3%[46.1 µM]
- COC(=O)COc1ccc(C(c2c(C)[nH][nH]c2=O)c2c(C)[nH][nH]c2=O)cc1
 : -3%	2%	-3%	.	2%[46.1 µM]	-4%	.	4%[46.1 µM]
- CCN(CC)c1ccc(-c2nc3cnccn3c2NC2CCCC2)cc1
 : 2%	8%	2%	-5%	?	10%	-9.7%	0%
- CCCCN(C)CCNC(=O)c1cc(-c2cccnc2)nc2ccc(S(=O)(=O)N3CCC(C)CC3)cc12
 : 1%	0%	-2%	-13%	?	22%&0%	0.0%	-5%&10%[46.1 µM]
- CC1=C(C(=O)Nc2ccccc2)C(c2ccc(C)cc2)N=C(Nc2nc3ccccc3o2)N1 (stereo not drawn)
 : -7%	4%	-5%	-29%	?	-23%	1.8%	?
- Cc1ccccc1N(C(=O)c1snc(C(N)=O)c1N)C(C(=O)NC1CCCC1)c1ccco1 (stereo not drawn)
 : 5%	11%	5%	.	-13%[46.1 µM]	-6%	.	?
- O=C(CCN1CCCC1Cc1ccccc1)c1ccc2c(c1)OCCO2 (stereo not drawn)
 : .	-222%	25µM*	20µM*	?	-7%	25µM*	?
- COc1cccc(CNC(=O)c2cnc3c(-c4ccc(F)cc4)c(C)nn3c2C)c1
 : .	.	.	-12%	.	-11%	0.6%	15%[46.1 µM]
- COC(=O)c1ccc(NC(=O)CC2C(=O)N(c3ccc(F)cc3)C(=O)N2Cc2ccc(OC)cc2)cc1 (stereo not drawn)
 : .	.	.	5%	.	-13%	-0.1%	2%[46.1 µM]
- CCOC(=O)c1c(-c2ccc(C)o2)csc1NC(=O)CN1CCC(C(N)=O)CC1
 : 0%	0%	2%	.	-13%[46.1 µM]	?	.	-21%
- COc1ccc(-c2nnsc2N2C(=O)c3ccccc3C2=O)cc1
 : 0%	0%	16%	.	10%[46.1 µM]	-4%	.	24%[46.1 µM]
- C=CCc1cccc2cc(C(=O)NC3CCCCC3)c(=O)oc12
 : 6%	.	-11%	.	1%[46.1 µM]	9%	.	8%[46.1 µM]
- CC(=O)N1CCOc2ccc(S(=O)(=O)NCC3CCC(C(=O)Nc4ccc(C)cn4)CC3)cc21 (stereo not drawn)
 : -2%	-12%	6%	.	?	?	.	?
- O=C(c1cnn2c(C(F)F)cc(-c3ccccc3)nc12)N1CCN2CCCC2C1 (stereo not drawn)
 : 2%	0%	12%	-19%	-17%	-15%	-4.8%	1%
- Cn1c(=NC(=O)c2ccccc2[N+](=O)[O-])sc2cccc(F)c21
 : 0%	7%	22%	.	.	79%[activator]	.	.
- COc1ccc(N(C(=O)CNC(=O)c2ccco2)C(C(=O)NC2CCCCC2)c2ccncc2)cc1 (stereo not drawn)
 : 0%	-1%	7%	.	5%[46.1 µM]	-8%	.	0%[46.1 µM]
- Cc1cc(C)c(C#N)c(N2CCCC(C(N)=O)C2)n1 (stereo not drawn)
 : 13%	2%	-4%	3%	4%[46.1 µM]	3%	0.5%	-6%
- O=C(Oc1cccc(C(=S)N2CCOCC2)c1)c1cc([N+](=O)[O-])cc([N+](=O)[O-])c1
 : 0%	4%	-9%	.	5%[46.1 µM]	-15%	.	-3%
- O=C(CNS(=O)(=O)c1ccc(Br)s1)N1CCN(c2ncccn2)CC1
 : -6%	0%	20%	5%	25%	10%	0.7%	7%
- CCOc1ccc(CNC(=O)C2=Cc3cccc(OC)c3OC2)cc1
 : .	.	.	5%	.	0%	-3.3%	?
- Cc1cc(C)c(NC(=O)CN2C(=O)NC3(CCCCC3)C2=O)c(Cl)c1
 : 2%	-5%	-18%	-2%	-21%	-4%	1.7%	-5%
- CCOC(=O)c1c(NCc2ccc3c(c2)OCO3)c2ccccc2[nH]c1=O
 : -6%	-9%	7%	-2%	?	21%	3.3%	11%
- CCOc1ccc(-c2c(C(=O)N/N=C/c3ccc(OC)cc3)nnn2-c2nonc2N)cc1
 : 20µM*	10%	0%	?	-8%	-12%	-9.1%	?
- CCc1ccc(NC(=O)c2cnn(-c3ccccc3)c2C)cc1
 : 10%	0%	-12%	-6%	10µM*	-16%	-2.0%	?
- Cc1ccc(CNC(=O)CCNS(=O)(=O)c2cccs2)cc1
 : ?	-14%	-15%	-4%	12%	-4%	-2.9%	-2%
- CCOC(=O)c1c(C)nc2sc3c(c2c1-c1ccc(OC)cc1)NC(c1ccccc1)NC3=O (stereo not drawn)
 : -2%	6%	26%	5%	-16%	?	-7.9%	0%
- COC(=O)c1ccccc1NC(=O)c1ccc2c(c1)OCCCO2
 : 5%	-41%	-14%	.	8%[46.1 µM]	17%	.	?
- O=C(c1ccc([N+](=O)[O-])cc1)N(Cc1cccs1)C1CCS(=O)(=O)C1 (stereo not drawn)
 : -1%	9%	1%	.	11%	-15%	.	-3%
- CCC(=Cc1ccc(CC)cn1)CC
 : 14%	6%	3%	.	0%[46.1 µM]	39%[activator]	.	4%

Rewritten bar-delimited: 2 of the compounds above
SMILES | SARS PLpro yeast | NS1 inh | RE007 growth inh | Cruzain noTriton | MARV entry inh | 2A StopGo | Cruzain inh Det | Lassa entry inh
O=C(c1cnn2c(C(F)F)cc(-c3ccccc3)nc12)N1CCN2CCCC2C1 (stereo not drawn) | 2% | 0% | 12% | -19% | -17% | -15% | -4.8% | 1%
Cn1c(=NC(=O)c2ccccc2[N+](=O)[O-])sc2cccc(F)c21 | 0% | 7% | 22% | . | . | 79%[activator] | . | .
